Methyltransferases: Primary Screen for Target Class Profiling of Small Molecule Inhibitors of Methyltransferases. purified enzyme, MTase-Glo SAH luminescence; active compounds read low. calls only at 40 µM. 25,000 tested, 3.9% active. AID 1745853, 2022; active = -50% or lower on at least one of six enzymes; inconclusive = the cases between; inactive = as a rule above -30% on all six;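 note: enzymes were COMT GAMT GNMT HNMT NNMT and PNMT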
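Each enzyme was assayed with SAM and its substrate. SAH formation detected by MTase-Glo luminescence; single-point 40 uM screen[…].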
Calls only; i = inactive; u = inconclusive; + = active, no number. % is set by controls: 0 for no effect and ±100 for the full control effect. This is a subset (hit frequency here may not be typical).

The first two records (preview)
SMILES,Methyltransferases
COc1ccccc1CNC(=O)C1c2c(n(C)c3ccccc23)SCC(=O)N1c1ccc(Cl)cc1 (configuration not stated),i
Cc1noc(C)c1CC(=O)N1CCCn2cc(-c3ccccc3F)nc21,i

The listing, from the first entry:
SMILES,Methyltransferases
COc1ccccc1CNC(=O)C1c2c(n(C)c3ccccc23)SCC(=O)N1c1ccc(Cl)cc1 (configuration not stated),i
Cc1noc(C)c1CC(=O)N1CCCn2cc(-c3ccccc3F)nc21,i
CC(C)NC[C@H]1O[C@@H](CO)[C@@H](O)[C@H]1N1CCN(C)CC1,i
CC(C)Cn1c(=O)c2ccccc2n2c(SCc3cccc(F)c3)nnc12,i
CC1(C(=O)NC2CCCCC2)Cn2c(ccc2-c2ccco2)C(=O)N1CCc1ccccc1Cl (configuration not stated),i
COCC(=O)N1CCCN(c2nc3ncccc3o2)CC1,i
CCC(C)N(C)C(=O)c1cc2ccccc2c(-c2ccccc2Cl)n1 (configuration not stated),i
CCCC1c2ccc(C)n2CCN1C(=O)Nc1cc(Cl)ccc1C(=O)OC (configuration not stated),i

Further structures follow:
SMILES,Methyltransferases
COCCNc1nc2c(S(=O)(=O)c3ccccc3)nnn2c2ccc(Cl)cc12,i
O=C(Cc1ccccc1)OC[C@H]1O[C@H](O[C@H]2O[C@H](CO)[C@@H](O)[C@H](O)[C@H]2O)[C@H](O)[C@@H](O)[C@@H]1O,i
CC(=O)N[C@H]1[C@H](O[C@H]2CC[C@]3(C)C4CC=C5[C@@H]6CC(C)(C)CC[C@]6(C(=O)O)[C@H](O)C[C@@]5(C)[C@]4(C)CC[C@H]3C2(C)C)O[C@H](CO)[C@@H](O)[C@@H]1O (some centres not stated),i
CCOc1ccc(C2c3cccn3-c3sc4c(c3CN2C(=O)Nc2ccc(C)c(F)c2)CCCC4)cc1 (configuration not stated),i
COCC1CN(C2CCC2)CC12CCN(C(=O)c1ccnn1C)CC2 (configuration not stated),i
CNS(=O)(=O)CCNc1nc(-c2ccccn2)nc2c1c(C)nn2C,i
Cn1ccnc1CCOC(c1cc2nccc(C(=O)O)c2[nH]1)c1ccccc1Cl (configuration not stated),u
CO[C@H]1C(=O)N(C(C)C)[C@H]1C1CCN(C(=O)C(C)C)CC1,i

(cont.)
SMILES,Methyltransferases
CC1(C(=O)NC2CCCCCC2)Cn2nc(-c3ccco3)cc2C(=O)N1Cc1cccc(F)c1 (configuration not stated),i
CCCn1c(=O)c2ccccc2n2c(SCc3c(F)cccc3Cl)nnc12,i
CN1C(=O)c2cc(C(=O)NCCCN3CCCC3=O)nn2CC1(C)C(=O)NC1CCCCCC1 (configuration not stated),i
C=Cc1ccc(Cn2nc3n(CC(C)C)c(=O)c4ccc(C(=O)NC(C)C)cc4n3c2=O)cc1,i
CCOc1ccc(CN2C(=O)c3cc4oc(C)cc4n3CC2(C)C(=O)NC2CCCCC2)cc1 (configuration not stated),i
CCCSCCCN1C(=O)c2cc3sc(CC)cc3n2CC1(C)C(=O)NC1CCC(C)CC1 (configuration not stated),i
COc1cc(NC(=O)CSc2nnc3n(CCC(C)C)c(=O)c4ccccc4n23)cc(OC)c1,i
Cc1c(CNC(=O)c2ccccc2C2CCNC2)oc2ccccc12 (configuration not stated),i

The results go on.
SMILES,Methyltransferases
Cc1noc(-c2ccco2)c1C(=O)NCc1cccc(Cl)c1,i
CC(C(=O)O)c1ccc(CC2CCCC2=O)cc1 (configuration not stated),i
CCCC1c2cccn2CCN1C(=O)Nc1ccccc1Br (configuration not stated),u
CCOCCCNC(=O)CCc1nnc2n(Cc3ccc(F)cc3)c(=O)c3ccccc3n12,i
CN(C)Cc1ccc(S(=O)(=O)n2ccc(/C=C/C(=O)NO)c2)cc1,u
COc1cc2c(c(OC)c1O)C(c1ccc(O)cc1)C1C(=O)OC3C(COC(=O)C1=C2)OC(CO)(OC1OC(COC(=O)/C=C/c2ccc(OC4OC(C)C(O)C(O)C4O)cc2)C(O)C(O)C1O)C3O (configuration not stated),i
Cc1ccccc1-n1nc(-c2c(-c3ccc(F)cc3)nn3c2NC[C@@H](CO)C3)ccc1=O,i
CC(C)N1CC(C(=O)N2CCC(c3ccccc3)CC2)NC1=O (configuration not stated),i

(list continues)
SMILES,Methyltransferases
O=C(NCCc1ccccc1)Nc1cccn2ncnc12,i
CCc1cc2c(cc3n2CC(C)(C(=O)NC2CCC(C)CC2)N(Cc2cccc(OC)c2)C3=O)s1 (configuration not stated),i
C=C1/C(=C/C=C2\CCC[C@]3(C)[C@@H]([C@H](C)/C=C/C(=O)C4CC4)CC[C@@H]23)C[C@@H](O)C[C@@H]1O,u
CCOc1cc2c(c(F)c1OCC)C(=N)N(CC(=O)c1cc(N3CCOCC3)c(OC)c(C(C)(C)C)c1)C2,u
CN1CC(c2ccccc2)CC2(CCN(C(=O)c3ccccc3)CC2)C1 (configuration not stated),i
Cc1ccccc1C(=O)N1CCCN(c2ccc3nnc(-c4ccccc4)n3n2)CC1,i
CC(C)CCN1C[C@@H]2C(=O)N(CCc3ccccc3)C(=O)[C@@H]2C1,i
Cc1ccc(NC(=O)CSc2nnc3n(C)c(=O)c4ccc(C(=O)NC5CCCC5)cc4n23)cc1,i

Given field by field: part of the list above
SMILES: Cc1ccccc1C(=O)N1CCCN(c2ccc3nnc(-c4ccccc4)n3n2)CC1
- Methyltransferases: i

SMILES: CC(C)CCN1C[C@@H]2C(=O)N(CCc3ccccc3)C(=O)[C@@H]2C1
- Methyltransferases: i

SMILES: Cc1ccc(NC(=O)CSc2nnc3n(C)c(=O)c4ccc(C(=O)NC5CCCC5)cc4n23)cc1
- Methyltransferases: i

(more compounds)
SMILES,Methyltransferases
CCCCS(=O)(=O)N1CC(F)(F)C[C@H]1c1nnc(C)o1,i
Cc1cccc(CN2C(=O)c3ccc(-c4ccco4)n3CC2(C)C(=O)NC2CCCCCC2)c1 (configuration not stated),i
CNC(=O)[C@@H]1C[C@H](Oc2ccccc2)CN1S(=O)(=O)Cc1ccccc1F,i
COc1ccc2cc3n(c2c1)CC(C)(C(=O)NC1CCCCC1)N(Cc1ccccc1OC)C3=O (configuration not stated),i
O=C(Cc1ccsc1)N1CCC(n2cc(-c3nc(-c4ccccc4)no3)nn2)C1 (configuration not stated),i
CC1CC(=O)C2C(O)(C1)CC(O)C13OC1c1c(O)cccc1C(=O)C23O (configuration not stated),i
Cc1cccc(-c2[nH]c(CNc3ccccc3F)nc2-c2ccc3ncnn3c2)n1,i
COC(=O)c1ncn2c1C(=O)N(Cc1ccc(OC(C)C)cc1)C(C)(C(=O)NC1CCCC1)C2 (configuration not stated),i

Continued.
SMILES,Methyltransferases
CS(=O)(=O)N(Cc1cccnc1)C1CN(C(=O)Nc2ccc3c(c2)OCCO3)C1,i
Cc1n[nH]c(C)c1CCC(=O)Nc1cccn2nc(C3CCC3)nc12,i
CCCCc1nc2c3ccccc3n(CC(=O)N3CCN(c4ccc(F)cc4)CC3)c(=O)n2n1,i
CC1(C(=O)NC2CCCCCCC2)Cn2c(ccc2-c2ccccc2)C(=O)N1CC1CCCO1 (configuration not stated),i
Cc1ccc(C)c(N2C(=O)c3cc4sccc4n3CC2(C)C(=O)NC2CCCC(C)C2C)c1 (configuration not stated),i
CC(C)(C)[C@]1(O)CCN2C[C@H]3c4ccccc4CCc4cccc(c43)[C@@H]2C1,i
COc1ccccc1CN1C(=O)c2cc3occc3n2CC1(C)C(=O)NC1CCC(C)CC1 (configuration not stated),i
Cc1ccc(CNC(=O)N2Cc3c(sc4c3CCCC4)-n3cccc3C2c2ccccc2)cc1 (configuration not stated),i

Remaining list, next part:
SMILES,Methyltransferases
CNC(=O)[C@@H]1C[C@@H](n2cc(CC(C)C)nn2)CN1,i
CCN1CCCN(S(=O)(=O)c2cccs2)CC12CCOCC2,i
CC(C)OCCCn1c(=O)c2ccccc2n2c(CCC(=O)Nc3cccc(Cl)c3)nnc12,i
COc1ccccc1NC(=O)N1CCCC2(CCC(=O)N(CC3CC3)C2)C1 (configuration not stated),i
CC1(C(=O)NC2CCCCCCC2)Cn2c(ccc2-c2ccco2)C(=O)N1CCc1cccs1 (configuration not stated),i
OC[C@@]1(O)CO[C@H](OC[C@H]2O[C@@H](OCCc3ccccc3)[C@H](O)[C@@H](O)[C@@H]2O)[C@@H]1O,i
COC[C@@H]1CCCN1Cc1cc2cc3c(cc2[nH]c1=O)OCO3,i
Cn1c(=O)oc2ccc(C(=O)N[C@H](C3CCNCC3)C3CC(O)C3)cc21 (some centres not stated),u

Additional records:
SMILES,Methyltransferases
Cc1nn(C)cc1C(=O)NCCn1c(C)cnc1C1CC1,i
COc1ccc(C(=O)N(CCC(C)C)Cc2nc(C)c(C)n2Cc2ccccc2C)c(OC)c1,+
CC(C)C(=O)N1CCC(CCOc2ccc(F)cc2)C1 (configuration not stated),i
CCCN1C(=O)c2cc(C(=O)NCCN(C)C)nn2CC1(C)C(=O)NC1CCCC1 (configuration not stated),i
CSc1ccc2c(c1)C(N1CCN(C)CC1)Cc1ccccc1S2 (configuration not stated),+
CCOc1ccc(CCN2C(=O)c3cc(C(=O)OC)nn3CC2(C)C(=O)NC2CCCCC2)cc1 (configuration not stated),i
CC(C)Cn1c(=O)c2ccccc2n2c(SCC(=O)Nc3ccc(C(C)C)cc3)nnc12,i
COc1ccccc1CCN1CCCC(CN(C)C(=O)CN2C(=O)CNC2=O)C1 (configuration not stated),i

Later entries
SMILES,Methyltransferases
CCOc1ccccc1CN1C(=O)c2cc3sccc3n2CC1(C)C(=O)NC1CCCC1 (configuration not stated),i
CC(=O)Nc1c2n(c3ccc(F)cc13)CC(C)(C(=O)NC1CCCC1)N(c1cccc(C)c1C)C2=O (configuration not stated),i
COc1ccc(CNc2nc3c(-c4ccc(Cl)cc4)nnn3c3ccccc23)cc1,i
COc1cccc(CNc2nc3c(S(=O)(=O)c4ccccc4)nnn3c3ccc(Cl)cc23)c1,i
O=C(NCc1ccc(OC(F)(F)F)cc1)C1c2ccccc2C(=O)N1C1CCOCC1 (configuration not stated),i
N#CC1C(=O)Nc2scc(-c3ccc(-c4ccccc4O)cc3)c2C1=O (configuration not stated),u
COc1ccc(CN2C(=O)c3cc4ccccc4n3CC2(C)C(=O)NC2CCCCCC2)cc1 (configuration not stated),i
CC1=C[C@@H](CNC(=O)CC(C)(C)C)[C@H](C(C)C)C[C@H]1CC(=O)NC1CCCC1,i

(next part)
SMILES,Methyltransferases
OC[C@H]1C[C@@H](NCc2ccc(F)cc2)[C@H](O)[C@@H]1O,i
CC(=O)O[C@H]1[C@H](Oc2ccccc2COC(=O)C2(O)C=CCCC2=O)O[C@H](CO)[C@@H](O)[C@@H]1O (some centres not stated),i
CC(C)NC(=O)c1ccc2c(=O)n(Cc3ccccc3)c3nn(Cc4ccccc4F)c(=O)n3c2c1,i
CC(C)CCN1C(=O)c2nc3ccccc3n2CC1(C)C(=O)NC1CCCC(C)C1C (configuration not stated),i
COc1ccc(-c2cc3n(n2)CC(C)(C(=O)NC2CCCCC2)N(CCC(C)C)C3=O)cc1 (configuration not stated),i
CS(=O)(=O)N1CC2(CCN(C3COC3)C2)Cc2ccccc21 (configuration not stated),i
CC(C)(Oc1ccc(CCNC(=O)c2ccc(Cl)cc2)cc1)C(=O)O,i
O=C1NC2(CN([S+](=O)([O-])c3ccccc3)C2)Oc2ccccc21,i

(more compounds)
SMILES,Methyltransferases
CCCn1c(=O)c2cc(Cl)ccc2n2c(SCC(=O)Nc3cccc(F)c3)nnc12,i
CC(C)Cn1c(=O)c2ccc(C(=O)NC(C)C)cc2n2c(SCc3cccc(F)c3)nnc12,i
CC(C)n1nc(OC(C)(C)C(=O)Nc2ccccn2)c2cc(CN3CCOCC3)ccc21,i
CN(C)CCN1C(=O)c2ccc(-c3ccco3)n2CC1(C)C(=O)NC1CCCCCC1 (configuration not stated),i
CCOc1ccc(CNC(=O)c2cc3n(n2)CC(C)(C(=O)NC2CCCCC2)N(C)C3=O)cc1OC (configuration not stated),i
CN(CCc1ccccn1)[C@H]1[C@@H]2OC[C@@H](O2)[C@@H](NCc2ccc(-c3ccccc3)cc2)[C@@H]1O,i
COc1cccc(CN2C(=O)c3ccc(-c4ccco4)n3CC2(C)C(=O)NCc2ccc(Cl)cc2)c1OC (configuration not stated),i
O=C(NCC1CCCCCC1)C1CCN(Cc2ccccc2-c2cccnc2)CC1,i

Next compounds.
SMILES,Methyltransferases
O=C(NC1CC1)c1ccc2c(=O)nc3c(-c4ccc(Cl)cc4)n[nH]n3c2c1,i
CC(=O)Nc1ccc2c(c1)S(=O)(=O)N=C(CC(C)C)N2CC(C)C,i
CCN(CCO)CCCOc1ccc2c(Nc3cc(CC(=O)Nc4cccc(F)c4)[nH]n3)ncnc2c1,u
COc1ccc(S(=O)(=O)N2CCC(OCCOCc3ccccc3)CC2)cc1,i
N#Cc1cc(-c2ccnc(Nc3ccc(N4CCOCC4)cc3)n2)ccc1OC1CCOCC1,i
COc1ccc(-c2cc(C[C@@H]3CC[C@H](O)[C@@H](CNC4CCN(C(C)=O)CC4)O3)no2)cc1,i
CC(C)(Oc1ccc(-c2nc3cc(Cl)ccc3s2)cc1)C(=O)O,u
Cc1noc2c(NCc3ccccc3)cc(-c3cccnc3)nc12,u

Remaining list, next part:
SMILES,Methyltransferases
C=CC(=O)Nc1cccc(Nc2nc(Nc3ccc(NC4CN(CCF)C4)cc3OC)ncc2C(F)(F)F)c1,i
CSCCC(NS(=O)(=O)c1ccc2c(c1)oc(=O)n2C)C(=O)N1CCN(c2cc(C)ccc2C)CC1 (configuration not stated),i
CCCC1c2ccc(C)n2CCN1C(=O)Nc1cc(OC)cc(OC)c1 (configuration not stated),i
CCOc1c2c(c(OCC)c3ccccc13)C(=O)N(c1ccc(CC(=O)NS(=O)(=O)c3ccccc3)cc1)C2,i
N#CC[C@H](C1CCCC1)n1cc(-c2ncnc3[nH]ccc23)cn1,u
